CtBP-E1A blk: blocks the CtBP interaction with E1A; AlphaScreen GST-E1A/His-CtBP binding, 1536-well; hits give low values; control for the full effect not named in the record; activity change, % (test concentration not listed); actives 0.49% (n = 340,000); in the data active means activity change below about -65%; inconclusive means about -30% to -65%; inactive means above about -30%; further: on the % scale 0 is the no-effect control and ±100 the full control effect; compound concentration not given in the record
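In 5 uL wells, 23 nL compound meets equimolar GST-E1A and His-CtBP (5X stock 125 nM each) for 2 h, 37 °C. Beads (5X, 50 ug/mL) then 1 h, 37 °C, dark.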
ClpP mod: qHTS Assay for Activators of ClpP; ATP-dependent Clp protease proteolytic subunit (Bacillus subtilis (strain 168)), P80244; purified B. subtilis ClpP, FRET peptide cleavage, 20 min; Potency, µM (doses to about 57.5 µM), inactives show at the highest dose activity change, negative = active; actives 1.9% (n = 340,000); AID 651965, 2013; active = well fitted falling curve with a large enough effect; inconclusive = small, poorly fitted or top-dose-only effect; inactive = no such curve, though single readings can be large or run the other way; further: potency means the concentration at half of the fitted maximal effect; the source files actives as falling curves though it sought activators and does not explain the sign; nearly all actives have a fitted effect of over 65% in size; many hits overshoot -100%
Target sequence (P80244 whole entry, looked up): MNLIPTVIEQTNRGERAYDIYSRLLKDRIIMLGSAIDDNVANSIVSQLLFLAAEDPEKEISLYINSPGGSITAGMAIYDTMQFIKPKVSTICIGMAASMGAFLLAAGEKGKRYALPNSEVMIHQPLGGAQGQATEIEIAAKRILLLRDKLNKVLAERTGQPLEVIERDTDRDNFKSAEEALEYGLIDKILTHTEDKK
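ClpP 10 microg/mL final, pH 8 Tris/KCl buffer with BSA, glycerol, Tween-20; compound pinned in; FRET-FV substrate; RT 20 min; Ex320/Em430; ΔFRET vs ADEP 5.8 microM, DMSO, no enzyme.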
Sfp inh: Sfp phosphopantetheinyl transferase inhibition | Biochemical Sfp PPTase activity, qHTS | Potency, µM, without a hit: max response, negative = inhibition, hits mostly inhibitors | actives 3.5% (n = 310,000) | AID 1490; active means well fitted inhibition curve with a large enough effect; inconclusive means small, poorly fitted or top-dose-only effect, or another doubt; inactive means no such curve, though single readings can be large or run the other way;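 further: the enzyme is Sfp with the accession as filed and its product quenches rhodamine fluorescence; potency means the concentration at half of the fitted maximal effect; 0% = enzyme reaction without inhibitor and -100% = no enzyme wells; top concentration of the series not given in the record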
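Step 1, compound plus 15 nM Sfp-PPTase, 15 min, room temperature. Step 2, add rhodamine-CoA (5 uM) and BHQ-2-YbbR (12.5 uM). Step 3, read 525/598 nm fluorescence at 0 and 30 min.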
Menin-MLL FL inh: inhibitors of human menin-MLL interaction, wild-type MLL peptide | Fluorescence polarization, fluorescein-MLL peptide displacement from menin | FP activity change, % at 61.4 µM | 290,000 tested, under 10 active; inconclusive = falling polarisation curve, or a change in total fluorescence; inactive = total fluorescence flat and polarisation flat or rising; no compound was filed as active; the % refers to the polarisation; negative = inhibition;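 further: % of control where 0% means no effect; inhibitors lower the polarisation; unlabelled MLL peptide was the positive control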
gsp antag: gsp mutant antagonism | actives 0.4% (n = 340,000) | Potency, µM (doses to about 76.9 µM), for the others: at the highest dose activity change, negative = inhibition, most hits filed as inhibitors | gsp-mutant cells, cAMP HTRF, 30 min; control for the full effect not named in the record; active = falling curve of any shape with a large fitted effect; inconclusive = falling curve, mostly with a smaller effect; inactive = flat or rising curve; cell line not stated here;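 further: intracellular cAMP measured with PDE inhibitor Ro 20-1724 present during compound exposure; potency means the concentration at half of the fitted maximal effect; on the % scale 0 is the no-effect control and ±100 the full control effect; nearly all actives have a fitted effect of over 65% in size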
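HTRF cAMP measurement after 30 min RT detection following 30 min, 37C compound treatment alongside […] (added as 300 uM solution) in G418-selected cells seeded at 2000/well and grown 16–24 h.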
TRPV1 potentiator: enhances activation of the human vanilloid receptor TRPV1. TRPV1-expressing cells, Fluo-8 calcium influx, capsaicin EC20 potentiation; host cell line not named in the record; control for the full effect not named in the record. Q8NER1. actives 0.02% (n = 320,000). AID 540277. potentiation, % at 8.33 µM; active means potentiation above 80%; inconclusive means 30% to 80%; inactive means below 30%; further: 0% is about no effect
Target sequence (Q8NER1 whole entry, looked up): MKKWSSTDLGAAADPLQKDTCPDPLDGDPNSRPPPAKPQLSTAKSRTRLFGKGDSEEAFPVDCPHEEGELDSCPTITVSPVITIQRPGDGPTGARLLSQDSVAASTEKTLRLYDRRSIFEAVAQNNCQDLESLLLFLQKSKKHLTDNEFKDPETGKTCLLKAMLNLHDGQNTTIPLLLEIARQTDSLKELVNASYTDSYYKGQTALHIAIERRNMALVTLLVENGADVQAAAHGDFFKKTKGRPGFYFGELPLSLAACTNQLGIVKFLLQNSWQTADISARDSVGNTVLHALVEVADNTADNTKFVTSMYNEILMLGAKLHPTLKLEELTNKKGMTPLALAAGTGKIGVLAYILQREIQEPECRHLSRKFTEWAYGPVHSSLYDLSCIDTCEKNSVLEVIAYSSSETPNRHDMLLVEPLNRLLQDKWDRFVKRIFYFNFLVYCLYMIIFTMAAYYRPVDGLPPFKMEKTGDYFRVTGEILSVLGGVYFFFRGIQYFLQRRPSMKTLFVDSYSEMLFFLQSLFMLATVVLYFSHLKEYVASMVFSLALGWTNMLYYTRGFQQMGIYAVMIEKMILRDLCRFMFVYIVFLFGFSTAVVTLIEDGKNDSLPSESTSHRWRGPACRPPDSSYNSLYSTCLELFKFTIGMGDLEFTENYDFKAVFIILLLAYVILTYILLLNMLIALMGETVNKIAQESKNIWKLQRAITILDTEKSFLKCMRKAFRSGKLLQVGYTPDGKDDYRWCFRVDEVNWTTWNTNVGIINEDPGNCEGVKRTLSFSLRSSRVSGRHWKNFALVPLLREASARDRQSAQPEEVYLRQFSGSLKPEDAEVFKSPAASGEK
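Cells expressing TRPV1 were dye-loaded with Fluo-8 and read kinetically: 10 s baseline, 3 min after compound (agonist portion), then 2 min after EC20 capsaicin (allosteric enhancer portion). Calcium-bound dye fluorescence at 480/520 nm.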
gsp ag: gsp mutant agonism | gsp mutant cells, cAMP HTRF, 30 min; control for the full effect not named in the record | Potency, µM (highest dose often 76.9 µM), without a hit: top-dose activation (cAMP increase), usual class: activators | actives 0.13% (n = 340,000) | AID 624287; active = well fitted activation curve with a large enough effect; inconclusive = small, poorly fitted or top-dose-only effect, or another doubt; inactive = no such curve, though single readings can be large or run the other way; cell line not stated here;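 further: phosphodiesterase inhibitor Ro 20-1724 added with compounds to block cAMP breakdown; potency means the concentration at half of the fitted maximal effect; nearly all actives have a fitted effect of over 60% in size; about a fifth of the inactives were tested at one dose only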
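Cells stably selected in G418 were plated at 2000/well, grown 16-24 hr, then given compounds in DMSO with the PDE inhibitor […] (300 uM solution added) for 30 min at 37C; cAMP was read by HTRF.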
* = called active by the depositor; ? = inconclusive; · = not tested or not shown; & = joins results of further samples; [ ] = remark or other dose.

Every second line gives: CtBP-E1A blk, ClpP mod, Sfp inh, Menin-MLL FL inh, gsp antag, TRPV1 potentiator, gsp ag
O=C(C1CCC(CNS(=O)(=O)c2cccs2)CC1)N1CCN(c2ccc(Cl)cc2)CC1 (configuration not stated)
  ·, -1.7%&-4.7%, 5%, ·, ?, -9, -8%
CC(=O)c1cc2c(cc1NC(=O)CCNC(=O)c1ccccc1Cl)OCO2
  0, -21%, -3%, -1.3, 5%, 8, 2%
O=C(COC(=O)/C=C/c1ccc(F)cc1)NCc1cccs1
  -8, -0.7%, ·, ·, 12%, -4, -29%
CCCNC(=O)C[C@H]1C[C@H]2c3cc(NC(=O)Nc4ccc(F)cc4)ccc3O[C@H]2[C@@H](CO)O1
  1, -0.8%, ·, ·, ·, ·, -98%[inhibitor]
O=C(COc1ccc(Cl)cc1)c1ccc(O)cc1O
  -6, ·, 11%, 2.0, -6%, 14, -4%[15.4 µM]
COC(=O)C1(S(=O)(=O)c2ccc(C)cc2)CCOCC1
  13, -1.0%, 9%, 5.1, 3%, 3, -46%[inhibitor]
COc1ccc(C2CC(c3cccc(OC)c3OC)n3nnnc3N2)cc1 (configuration not stated)
  2, -1.3%, 2%, 0.1, -4%, 0, -18%
O=C(CSc1nnc(NC(=O)c2c(F)cccc2F)s1)Nc1ccccc1F
  16, -0.5%, 20%, 1.1, -39%, 0, 18%[15.4 µM]
Cc1ccc(N/C=C/C(=O)c2sc(-c3ccccc3)nc2C)cc1
  7, -2.0%, 1%, ?, -1%, 1, 11%
NC(=O)C1CCN(C(=O)CSc2nc3ccccc3o2)CC1
  6, -0.9%, 27%, -0.5, -1%, -21, 7%[15.4 µM]
O=C(CN1C2=NCCN2c2ccccc21)c1ccc(Br)cc1
  -2, 1.3%, -15%, -1.3, 4%, ?, -41%[inhibitor]
NC(=S)N/N=C/c1ccc(Br)o1
  ·, -0.4%, -72%, -1.6, 1%, -16, 20%
CN(C)S(=O)(=O)NCc1ccc2c(c1)OCO2
  4, 0.3%, 7%, -1.5, 13%, -1, 1%
O=[N+]([O-])c1ccc(Sc2n[nH]c(-c3ccc(Cl)cc3Cl)n2)nc1
  -30, 16%, 17%, 2.5, ?, -2, 5%
Cc1csc(SCC(=O)NC(=O)NCc2ccccc2)n1
  3, 0.1%, 17%, 3.7, 11%, 9, -42%[inhibitor]
O=C1c2ccccc2C(=O)N1CCC1=CCCCC1
  29, 0.1%, -17%, -0.4, -5%, 10, -17%
CN(C)c1ccc(C(=O)C(=O)c2ccccc2)cc1
  -1, 0.1%, -1%, 0.2, 10%, 1, 6%
CC1CC(C)CN(C(=O)CSCC(=O)Nc2nc(-c3cccs3)cs2)C1 (configuration not stated)
  -11, -1.1%, -6%, 2.6, -26%, 3, -51%[inhibitor]
O=C(O)c1ccccc1C(=O)c1ccc2c(c1)N(Cc1ccc(Cl)c(Cl)c1)C(=O)CO2
  -13, ·, 8%, 2.8, ?, 0, -3%[15.4 µM]
CC(=O)c1ccc(OC(C)C)c(CC(C(N)=O)C(N)=O)c1
  -1, 0.7%, 10%, -2.4, 6%, 1, 7%
CCN1CCN(CC(=O)Nc2ccc(C(C)=O)cc2)CC1
  8, ·, ?, ·, 6%, 16, 0%
CCn1c(SCC(=O)N/N=C/C=C\c2ccco2)nc2ccccc21
  -13, ·, 10µM*, 15, -12%, 26, -2%
CC1CCCCN1S(=O)(=O)c1ccc(N(C(=O)c2cnccn2)C(C(=O)NC2CCCC2)c2cccs2)cc1 (configuration not stated)
  2, -11%, 4%, 0.7, -14%, 1, -35%
CN(C)C(=O)N1CCC(C(=O)NCc2ccccc2Cl)CC1
  50, 1.7%, -2%, -1.2, 8%, -12, -23%
O=C(COC(=O)C1CC(=O)N(Cc2ccccc2)C1)c1ccc(Br)cc1 (configuration not stated)
  23, -1.5%, 11%, 10.0, -1%, -2, ?
CCCCc1nnc(NC(=O)CN2C(=O)NC3(CCCCC3)C2=O)s1
  0, -3.0%, 1%, -2.1, 5%, 1, -28%
O=C(CN1C(=O)c2ccc(Br)cc2C1=O)NCC1CCCO1 (configuration not stated)
  -15, -5.7%, 11%, -0.1, 13%, 6, 7.1µM*
O=c1c2c3c(sc2nc2n1CCCCC2)CCCCC3
  ·, ·, -11%, 3.3, ·, -29, ·
O=C(NCCS(=O)(=O)N1CCN(c2ccccc2F)CC1)c1ccc(Cl)cc1
  -4, -2.7%, ·, ·, 5%, -10, -39%[inhibitor]
COc1ccccc1C(=O)NNC(=O)c1cc2ccccc2cc1O
  2, -4.4%, ·, ·, ·, ·, 8%

Record cards, from the list above.
COc1ccccc1C(=O)NNC(=O)c1cc2ccccc2cc1O as listed: CtBP-E1A blk: 2; ClpP mod: -4.4%; Sfp inh: ·; Menin-MLL FL inh: ·; gsp antag: ·; TRPV1 potentiator: ·; gsp ag: 8%
NC(=S)N/N=C/c1ccc(Br)o1 as listed: CtBP-E1A blk: ·; ClpP mod: -0.4%; Sfp inh: -72%; Menin-MLL FL inh: -1.6; gsp antag: 1%; TRPV1 potentiator: -16; gsp ag: 20%

The listing picks up, repeating the three entries before the break.
Every second line gives: CtBP-E1A blk, ClpP mod, Sfp inh, Menin-MLL FL inh, gsp antag, TRPV1 potentiator, gsp ag
O=c1c2c3c(sc2nc2n1CCCCC2)CCCCC3
  ·, ·, -11%, 3.3, ·, -29, ·
O=C(NCCS(=O)(=O)N1CCN(c2ccccc2F)CC1)c1ccc(Cl)cc1
  -4, -2.7%, ·, ·, 5%, -10, -39%[inhibitor]
COc1ccccc1C(=O)NNC(=O)c1cc2ccccc2cc1O
  2, -4.4%, ·, ·, ·, ·, 8%
CC(Oc1ccccc1)C(=O)N1CCN=C1SCc1cccc(F)c1 (configuration not stated)
  8, -0.2%, -1%, 1.3, -18%, -21, 13%
O=C(CCCOc1ccccc1)NCCc1nc2ccccc2[nH]1
  6, 1.5%, 12%, -0.2, 5%, -8, 4%[15.4 µM]
COc1ccc(CCN2CC(C(=O)N(C)Cc3ccccn3)CCC2=O)cc1 (configuration not stated)
  7, 0.0%, ·, ·, ·, ·, ?
CNS(=O)(=O)c1cccc(C(=O)OCC(=O)c2cc(C)n(CC3CCCO3)c2C)c1 (configuration not stated)
  0, 1.3%, ·, ·, 5%, -19, 3%
COc1cc(OC)cc(-c2c(-c3cccs3)c3cc(-c4ccc(OCc5ccccc5)cc4)ccc3n2C)c1
  1, -9.6%, ·, ·, -13%, ·, 31%
OCCN(CCO)c1cc2c3ccccc3ccc2c2ccccc12
  4, 0.0%, ·, ·, -14%, ·, 12%[15.4 µM]
COc1ccc(NC(=O)c2cc(=O)[nH]c(=O)[nH]2)cc1S(=O)(=O)Nc1ccccc1Cl
  -21, ·, 31%[activator], 1.7, 9%, 0, 19%
O=C(CN1C(=O)CSc2ccccc21)N1CCc2ccccc21
  1, -1.2%, 10%, 3.2, 3%, -1, ?
O=C(N/N=C/c1ccccc1[N+](=O)[O-])c1ccc2nc[nH]c2c1
  0, ·, -5%, -0.3, -6%, ·, -30%[inhibitor]
CN(CC(=O)NNC(=O)CNC(=O)c1ccccc1F)S(=O)(=O)c1ccc(Cl)cc1
  -23, -2.3%, ·, ·, 19%, 2, 0%
CCOc1ccc(OCCC(=O)OCC(=O)NC(C)c2ccccc2)cc1 (configuration not stated)
  4, -1.2%, ·, ·, 12%, -4, -10%
CC1CCN(C(=O)CC#N)CC1
  ·, -1.1%, 2%, 3.4, 7%, 1, -16%
COc1ccc(C(O)(CCN2CCOCC2)c2ccccc2)cc1 (configuration not stated)
  3, ·, 6%, 5.1, 4%, 8, 2%[15.4 µM]
Cc1cc(NC(=O)CCCSc2nc(-c3ccco3)cc(C(F)(F)F)n2)no1
  3, -5.6%, -6%, 1.6, 0%[15.4 µM], 8, -32%
Cn1cccc1Cc1nnc(SCC(=O)Nc2ccc3c(c2)OCCO3)n1-c1ccc(F)cc1
  -9, 3.3%, -6%, -0.1, -8%, -6, 29%
CC1(C)Cc2ccccc2-c2nnc(-c3ccco3)n21
  4, -18%, 18%, 7.0, 17%, 19, 22%
CC(=O)N(OCc1ccc(OC(C)C)c(Cl)c1)C(C)=O
  1, -0.7%, 19%, 3.8, 10%, 9, ?
CC1CCN(C(=O)CCCl)c2ccccc21 (configuration not stated)
  7, 2.1%, ·, ·, 12%, ·, -4%[15.4 µM]
CC1(CCC(=O)N2CCCC(N3CCN(c4cccc(C(F)(F)F)c4)CC3)C2)CC1 (configuration not stated)
  -1, -0.9%, 6%, -4.2, -6%, 12, -18%
O=C(CSc1nnnn1-c1ccccc1)NC(=O)Cc1ccccc1
  8, -0.4%, ·, ·, 7%, 11, -45%[inhibitor]
CCOC(=O)C(CC)Sc1nnc2c3cc(C)ccc3n(C)c2n1 (configuration not stated)
  -28, -1.2%, 7%, -2.0, 2%, -3, 14%
COc1ccc(N2CN=C3SCC(=O)N3C2)cc1
  -4, -1.5%, 12%, -0.1, -10%, -11, -8%
CCO[C@@H]1OC(C(=O)NC2CC2)=C[C@H](c2csc3ccccc23)[C@H]1CCCO
  4, 0.9%, 7%, 0.1, 0%, 0, 9%
Cn1cc(CN2CCCC(CNS(=O)(=O)c3cccc4cccnc34)C2)cn1 (configuration not stated)
  -5, -4.5%, 8%, ·, 7%, -7, -27%
Cn1ncc(C#N)c1NC(=O)C1CC(c2ccc(Cl)cc2)=NO1 (configuration not stated)
  -2, 0.6%, 8%, -1.4, -1%, -11, -1%
COc1ccc(C(=O)NNC(=O)c2cc3ccccc3cc2O)cc1
  ·, -8.8%, ·, ·, -6%, ·, 7%
Cc1ccc(S(=O)(=O)Nc2nc3ccc(S(=O)(=O)N4CCCC4)cc3s2)cc1
  0, -11%, -4%, 0.0, ?, 4, ?
CCCOc1ccc(NC(=O)CC2C(=O)OCC3CCCCN32)cc1 (configuration not stated)
  2, -0.8%, ·, ·, 5%, -2, -43%[inhibitor]
N#C/C(=C\c1ccc(F)cc1)C(=O)NC1CCS(=O)(=O)C1 (configuration not stated)
  -2, ·, 8%, ·, -2%, -18, -7%

Screening results: PubChem BioAssay, National Center for Advancing Translational Sciences (NCATS)
